Screening data: PubChem BioAssay, National Center for Advancing Translational Sciences (NCATS)
HSD17B inh: HSD17B dehydrogenase inhibition; Q99714; recombinant HSD17B10, NADH fluorescence kinetic; many of its hits are not listed in these tables; Potency, µM (top dose mostly 57.1 µM), for the others: top-dose activity change, negative = inhibition, usual class: inhibitors; 7.6% of 75,000 active; AID 893; active = well fitted inhibition curve with a large enough effect; inconclusive = small, poorly fitted or top-dose-only effect; inactive = no such curve, though single readings can be large or run the other way;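 also: the protocol describes HADH2 (HSD17B10) and not the HSD17B4 of the title; nearly all actives have a fitted effect of over 70% in size; most hits overshoot -100% by far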
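20 nM HADH2, pH 9.0 Tris/Tween; cpd preinc 15 min RT; start w/ 1 mM NAD+ + 90 uM b-hydroxybutyryl-CoA; kinetic fluor ex360/em450 q30s x 4 min; delta last-first.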
Starred values were filed as active, the others as inactive; ? = inconclusive; & = joins results of further samples; [ ] = remark or other dose. % is scaled to controls: 0 for no effect and ±100 for the full control effect; potency is read from the fitted curve at half-maximal effect.

The first 5 compounds as a preview:
SMILES | HSD17B inh
O=S(=O)(c1ccccc1)N1CCC[C@@]2(CCN(c3ccccc3)C2)C1 | -17%
C[C@@H](N1CCOCC1)[C@@](O)(c1ccccc1)c1ccccn1 | -5%[11.4 µM]
COCCN(C(=O)Cc1cccs1)c1nnc(-c2cccnc2)s1 | 1%
O=C(O)CCCC(=O)N1CCN(c2cccc(Cl)c2)CC1 | 13%
CCCCc1n[nH]c2c1C(=O)CC(C)(C)C2 | 2%

The whole of this part (from the top)
SMILES | HSD17B inh
O=S(=O)(c1ccccc1)N1CCC[C@@]2(CCN(c3ccccc3)C2)C1 | -17%
C[C@@H](N1CCOCC1)[C@@](O)(c1ccccc1)c1ccccn1 | -5%[11.4 µM]
COCCN(C(=O)Cc1cccs1)c1nnc(-c2cccnc2)s1 | 1%
O=C(O)CCCC(=O)N1CCN(c2cccc(Cl)c2)CC1 | 13%
CCCCc1n[nH]c2c1C(=O)CC(C)(C)C2 | 2%
CC(=O)c1cc2c(cc1NC(=O)c1cc3nc(C(C)C)cc(C(F)(F)F)n3n1)OCO2 | 0%
c1ccc(Nc2ncnc3ccc(-c4ccc5c(c4)OCO5)cc23)cc1 | -21%
CCCCCN(CCCCC)C(=O)C(CCC(=O)O)NC(=O)c1ccc(Cl)c(Cl)c1 (stereo unspecified) | 1%
O=C1OC(N2CCN(C(=O)C3CCCO3)CC2)c2ccccc21 (stereo unspecified) | -1%
O=C(Nc1ccccc1Cl)c1cc(S(=O)(=O)N2CCCC(C(=O)O)C2)ccc1F (stereo unspecified) | 5%
COc1ccc(OC)c(-n2nnnc2SCC(=O)NCCc2ccccc2)c1 | 9%
CCOc1ccc(S(=O)(=O)N2CCN(C(=O)c3cccn3C)CC2)cc1 | 4%
O=C(Nc1ccccc1N1CCCCC1)c1ccccc1F | -13%
OCCSCc1cc(Cl)cc(Cl)c1O | -7%[11.4 µM]
COc1ccccc1CN1CCCC2(CCN(C(=O)c3cc(C(F)(F)F)cc(C(F)(F)F)c3)CC2)C1 | 2%
C/C(=N\O)c1ccccc1C(=O)O | 16%
Cc1cccc(-c2nnc(SCc3nc4ccccc4[nH]3)n2Cc2ccco2)c1 | 0%
N#Cc1c(NC(=O)CSc2n[nH]c(Cc3ccccc3)n2)oc(-c2ccccc2)c1-c1ccccc1 | -24%
Cc1ccc(OCc2ccoc2C(=O)O)cc1C | -13%
O=C(CCN1CCN(c2ccccc2F)CC1)Nc1ccccc1F | -3%
COCCOC(=O)/C=C1/NC(=O)CS1 | -5%
CCCOc1ccccc1C1NC(=O)NC(C)=C1C(=O)OCCOCC (stereo unspecified) | -2%
Cc1ccc(CSCCNS(C)(=O)=O)cc1 | -4%
O=C(O)c1ccc(-n2nnnc2Oc2ccccc2C(=O)N2CCOCC2)cc1 | 10%
CC(c1ccco1)N(C(=O)c1cccs1)c1ccccn1 (stereo unspecified) | 3%
O=C(Nc1cccc(F)c1)N1CCCC2(CCN(C(=O)c3cc(C(F)(F)F)cc(C(F)(F)F)c3)CC2)C1 | -4%
O=C(c1cnn2ccccc12)N(Cc1ccco1)C1CCCC1 | -13%
O=C(CSc1nnc(-c2ccccc2)n1C1CCCCC1)N1CCCC1 | 3%
CCOC(=O)c1cnc2ccc(C(=O)OC)cc2c1NCCN1CCOCC1 | -11%
CCOC(=O)N1CCC(Nc2c(Nc3cccc(CC)c3)c(=O)c2=O)CC1 | -3%
O=C1Oc2ccccc2C(=O)/C1=C\N1C(=O)N/C(=C\c2ccccc2O)C1=O | -18%[11.4 µM]
Cc1cc(C)cc(NC(=O)CN(C)S(=O)(=O)c2cccc3nsnc23)c1 | 12%
CCCC[C@@H]1C[C@H]1C(NC(=O)Cc1ccccc1)c1ccc(Cl)cc1 (stereo partly specified) | 11%
CCn1c(C2CC(=O)N(c3ccc(C)c(C)c3)C2)nc2ccccc21 (stereo unspecified) | 5%
CCc1nc(NCCCN2CCOCC2)c2oc3ccccc3c2n1 | -8%
CC12CN(Cc3ccccc3)CC(C)(CN(Cc3ccccc3)C1)C2=NO | 2%
O=C(CCn1c(=O)oc2ccccc21)Nc1ccon1 | 0%
COc1ccc(-c2cc3nc(C)cc(C)n3n2)c(OC)c1 | ?
N=c1c2c(n(Cc3ccc(Cl)cc3)c3c1CCC3)CCC2 | 12%
COC(=O)c1ccc(N(CC(=O)NC2CCCC2)C(=O)CNC(=O)c2ccco2)cc1 | 3%
CCCS(=O)(=O)N1CCC(C(=O)NCCCOC(C)C)CC1 | 14%
C=CCn1c(O)c(C(CC)=Nc2ccccc2NC(=O)CC)c(=O)[nH]c1=O | 1%
CC(Nc1nc(N2CCCC2)nc2ccccc12)c1ccccc1 (stereo unspecified) | 32µM*
O=c1c2ccccc2nc(-c2ccco2)n1CCCn1ccnc1 | -7%
COc1ccc(-c2cc3nc(C4CCN(C(=O)OC(C)(C)C)CC4)c(C(=O)O)cn3n2)cc1 | ?
CC(C)c1ccc2c(c1)C(=O)NC(C)(C)C2 | 3%
Nc1nc(CSc2nc3ccccc3s2)nc(N2CCCCC2)n1 | -4%
C=C(C)COc1ccc2c(C)c(C)c(=O)oc2c1OCC(=C)C | 32µM*
c1ccc(CNc2ncnc3c2cnn3-c2ccccc2)cc1 | ?
O=C(NC1c2ccccc2-c2ccccc21)N1CCCCC1 | 4%
Continuation:
SMILES | HSD17B inh
O=C(Cn1c(=O)oc2ccccc21)N1CCN(c2ccc(N3CCOCC3)nn2)CC1 | 32µM*
CC1(C(=O)NC2CCCC2)CCC(=O)N1Cc1ccc2c(c1)OCO2 (stereo unspecified) | 10%
CC1=C(C(=O)OCc2ccc3c(c2)OCO3)C(c2ccc(Cl)cc2)NC(=O)N1 (stereo unspecified) | -7%
O=C(Nc1ccc2c(c1)nc1n2CCCCC1)c1cc(S(=O)(=O)N2CCOCC2)ccc1Cl | -2%
Cc1cccc(OCCC(=O)OCC(=O)N2CCc3ccccc32)c1 | -2%
COc1ccc(Cl)cc1C(=O)Nc1ccccc1N1CCN(C(=O)C(C)C)CC1 | -4%
C/C=C/OC(=O)NC(c1ccccc1)[C@@]1(C(=O)OC)CCCC1=O (stereo partly specified) | 4%[11.4 µM]
N#CC(C#N)=c1ccc2c(c1)N1C3=C(CCCC3)CC3CCCCC31N=2 (stereo unspecified) | -4%
Cc1ccc(CNC(=O)C2CCN(S(=O)(=O)c3c(C)noc3C)CC2)cc1 | 2%
COCC(=O)N1CCC2(CC1)CN(c1ccccn1)C2 | 25µM*

Nothing new here: entries from further up.
SMILES | HSD17B inh
N#CC(C#N)=c1ccc2c(c1)N1C3=C(CCCC3)CC3CCCCC31N=2 (stereo unspecified) | -4%
Cc1ccc(CNC(=O)C2CCN(S(=O)(=O)c3c(C)noc3C)CC2)cc1 | 2%
COCC(=O)N1CCC2(CC1)CN(c1ccccn1)C2 | 25µM*

Next part:
SMILES | HSD17B inh
Cc1ccc(-c2nnn(CC(=O)N(CCO)C(C(=O)NC(C)(C)C)c3ccncc3)n2)cc1 (stereo unspecified) | 1%
N#CCSc1nnc2ccc3ccccc3n12 | 7%
COC(=O)Cc1cc(=O)n(-c2nc3ccccc3s2)[nH]1 | ?
COc1ccc(NC(=O)Cn2nnc(C(=O)NCc3ccccc3OC)c2N)cc1Cl | 5%
COc1ccc(NC(=O)CC2C(=O)N(c3ccc(OC)cc3)C(=O)N2CCN2CCN(C)CC2)cc1 (stereo unspecified) | 12%
CC(C)CN1CCC2(CC1)CCN(C(=O)c1cccn1C)CC2 | 7%
CC1(C)c2ccccc2N2CCC(=O)NC21/C=C/c1ccco1 (stereo unspecified) | ?
CC(CCc1ccc(O)cc1)N(C)CCc1ccccc1 (stereo unspecified) | 1%
CC(C)CCNC(=O)c1cccc(Cl)c1 | 5%
CCOC(=O)N1CCN(C(=O)CC(C(=O)N2CCc3ccccc32)n2ccnc2)CC1 (stereo unspecified) | 11%
CCCC(=O)Nc1cc(C)c(NC(=O)C23CC4CC(CC(C4)C2)C3)cn1 | 4%
N=C(N)SCCN | 5%&-2%&6%
COC(=O)c1[nH]c2cccc(C)c2c1NC(=O)CN1CCN(c2ccccc2OC)CC1 | ?
CC(=O)Nc1ccc(S(=O)(=O)N2CCSC2c2ccc(C)cc2)cc1 (stereo unspecified) | -3%
CCCN1C(=O)/C(=C2\SC(N3CCCCC3)=NC2=O)c2ccccc21 | 5%
Cc1cc(N2CCOCC2)nc(SCC(=O)c2ccccc2)n1 | 9%
O=C(CSc1nnc(-c2ccccc2O)o1)Oc1ccc(OCc2ccccc2)cc1 | 32µM*
O=C(c1ccco1)N1CCN(C(c2ccccc2F)c2nnnn2CC2CCCO2)CC1 (stereo unspecified) | -1%
Cc1oc(-c2ccccc2)nc1CS(=O)CC(=O)N1CCc2ccccc2C1 (stereo unspecified) | ?
CCOc1ncccc1C(=O)Nc1cccc(C(=O)Nc2cccc(S(=O)(=O)CCO)c2)c1 | -5%
CCOc1ccc2nc(SC(C)C(N)=O)[nH]c2c1 (stereo unspecified) | 0%
CCc1nc(SCc2cccnc2)c2c(=O)n(C)c(=O)n(C)c2n1 | -4%
COC(=O)c1ccc(C2c3c(oc4ccc(F)cc4c3=O)C(=O)N2CCO)cc1 (stereo unspecified) | -3%
O=C(Nc1ccc(N2CCCCC2)c(Cl)c1)c1cccnc1 | 10%
CC(=O)N1CC2(CC(=O)OC(C)C)CN(C(C)=O)CC(CC(=O)OC(C)C)(C1)C2=O | 10%
COC(=O)N1CCC2(CCCN(c3ncccn3)C2)CC1 | -22%
COC1C(O)C(O)C(O)C(O)C1O (stereo unspecified) | 3%
CCc1cc2c(NCCC(=O)O)ncnc2s1 | 1%
Cc1ccc2cccc(OCC(=O)NCc3ccco3)c2n1 | -3%
C[C@@H](CSC(=N)N)C(N)=O | 8%[11.4 µM]
Cn1c(SCc2ccccc2)nnc1-c1ccc2c(c1)OCO2 | -5%
O=C1CCCC=C1[C@@H](O)COCc1ccccc1 | 1%[11.4 µM]
CCC(c1nnnn1CS(=O)(=O)c1ccc(C)cc1)N1CCN(c2nc3ccccc3s2)CC1 (stereo unspecified) | 17%
CCCNC(=O)c1cc(S(=O)(=O)N2CCc3ccccc32)ccc1F | 1%
CCOc1ccc(N(CC(=O)Nc2ccc3c(c2)OCCO3)S(=O)(=O)c2c(C)noc2C)cc1 | -1%
Cc1cc(N2C(=O)CC(N3CCN(C(c4ccccc4)c4ccccc4)CC3)C2=O)no1 (stereo unspecified) | 2%
COCCN(Cc1cc2cc3c(cc2[nH]c1=O)OCO3)C(=O)c1cccs1 | ?
NC(Cc1ccccc1)(C(=O)O)C(=O)O | 0%[11.4 µM]
CCC1CCC2(CC1)NC(CO)(CO)CO2 (stereo unspecified) | 10%
Cc1ccc(/C=N/n2c(C)nnc2C)s1 | -13%
O=C(c1cc(-c2ccc(Cl)c(Cl)c2)on1)N1CCCC1 | 6%
O=C(/C=N/O)Nc1ccc(F)cc1 | -7%
c1cn(C23CC4CC(CC(C4)C2)C3)cn1 | 0%
CCOC(=O)/C(C#N)=C1/C=Cc2ccccc2N1CC | -1%
CCOC(=O)N1CCC(NC(=O)C(CC(C)C)NC(=O)C2CCCCC2)CC1 (stereo unspecified) | 7%
CC1CCCN(C(=O)C2CCN(S(=O)(=O)c3cccc4cccnc34)CC2)C1 (stereo unspecified) | 4%
COc1ccc(CCN2C(=O)CC(N3CCN(c4ccccn4)CC3)C2=O)cc1OC (stereo unspecified) | 6%
COc1ccc(C2CC(c3ccc(C)cc3)Nc3ncnn32)cc1 (stereo unspecified) | 0%
CCCCOCC(O)Cn1c(C)nc2ccccc21 (stereo unspecified) | 2%
CCOc1ccc(-n2c(C)nc3cc(C(=O)NCc4ccco4)ccc32)cc1 | -27%
(list continues)
SMILES | HSD17B inh
CCOc1cc(-n2cnnn2)c(OCC)cc1NC(=O)c1cnccn1 | -1%
C/C(=C\C(=O)c1cccnc1)Nc1ccc(C)c(C)c1 | -7%
COCCn1c(SCC(=O)Nc2sc(C)c(C)c2C#N)nnc1C(C)C | -5%
O=C(OCc1nnc(-c2ccccc2)o1)c1ccc(S(=O)(=O)NCc2ccco2)cc1 | -25%
O=c1c2cccc3c2c(nn1CN1CCOCC1)-c1ccccc1-3 | ?
NNC(=O)CS(=O)(=O)Nc1ncccn1 | -2%[11.4 µM]
O=C(c1cccc(S(=O)(=O)N2CCCC2)c1)N1CCN(c2ccccc2F)CC1 | -12%
C/C(N)=C(/C#N)C(=O)CSc1nnnn1-c1ccc(C)cc1 | -3%
O=S(=O)(c1ccc2oc(-c3ccncc3)nc2c1)c1ccc2oc(-c3ccncc3)nc2c1 | -2%
COc1ccccc1NS(=O)(=O)c1cc(C(=O)NCCN2CCOCC2)ccc1Cl | -11%
COc1cccc(Cn2c(=O)c(-c3cc(F)cc(F)c3)nc3cncnc32)c1 | -12%

Look-ups from the results shown.
Reading for `COc1cccc(Cn2c(=O)c(-c3cc(F)cc(F)c3)nc3cncnc32)c1` in HSD17B inh: -12%
Reading for `C/C(=C\C(=O)c1cccnc1)Nc1ccc(C)c(C)c1` in HSD17B inh: -7%
Reading for `O=C(c1cccc(S(=O)(=O)N2CCCC2)c1)N1CCN(c2ccccc2F)CC1` in HSD17B inh: -12%
Reading for `COc1ccccc1NS(=O)(=O)c1cc(C(=O)NCCN2CCOCC2)ccc1Cl` in HSD17B inh: -11%
Reading for `NNC(=O)CS(=O)(=O)Nc1ncccn1` in HSD17B inh: -2%[11.4 µM]
Reading for `C/C(N)=C(/C#N)C(=O)CSc1nnnn1-c1ccc(C)cc1` in HSD17B inh: -3%
Reading for `O=C(OCc1nnc(-c2ccccc2)o1)c1ccc(S(=O)(=O)NCc2ccco2)cc1` in HSD17B inh: -25%

This is a subset. The share of hits here may be higher or lower than overall.
